YopH inh – blocks Yersinia enterocolitica YopH tyrosine phosphatase; inhibition, %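 (about 10 µM by stock and volumes)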; 140,000 compounds, 0.16% hits; fluorescence Ex485/Em525;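 active = inhibition of 50% or more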;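 note: controls were vehicle for no effect and minimum signal wells for full effect; inactives centre near -20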
Mtb betalactam – beta-lactam sensitization of Mtb H37Rv | AID 434955 | M. tuberculosis H37Rv growth with meropenem, percent inhibition; hits of this screen are not shown here | 330,000 compounds, 0.27% hits | inhibition, % at 25 µM;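 active = about 74% or more and at least 40 points above the plate without the antibiotic, then above 30% in a dose series; inconclusive = first-round hits that could not be retested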;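 note: growth measured after seven days incubation then overnight dye step; 0% = bacteria only wells and 100% = bacteria with antibiotic; twin plates without the antibiotic show which effects depend on it; some results filed as inactive read as strong as hits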
RecA splice inh – blocks M. tuberculosis RecA intein splicing. P9WHJ3. cell-free RecA intein splicing, fluorescence. inhibition, %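 (about 9 µM by stock and volumes)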. 290,000 compounds, 0.75% hits. AID 2221; in the data active = inhibition above about 30%; inconclusive = no clear call, values can overlap the other calls;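 note: 0% = vehicle wells and 100% = reference inhibitor control wells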
Target sequence (P9WHJ3 whole entry, looked up, canonical isoform): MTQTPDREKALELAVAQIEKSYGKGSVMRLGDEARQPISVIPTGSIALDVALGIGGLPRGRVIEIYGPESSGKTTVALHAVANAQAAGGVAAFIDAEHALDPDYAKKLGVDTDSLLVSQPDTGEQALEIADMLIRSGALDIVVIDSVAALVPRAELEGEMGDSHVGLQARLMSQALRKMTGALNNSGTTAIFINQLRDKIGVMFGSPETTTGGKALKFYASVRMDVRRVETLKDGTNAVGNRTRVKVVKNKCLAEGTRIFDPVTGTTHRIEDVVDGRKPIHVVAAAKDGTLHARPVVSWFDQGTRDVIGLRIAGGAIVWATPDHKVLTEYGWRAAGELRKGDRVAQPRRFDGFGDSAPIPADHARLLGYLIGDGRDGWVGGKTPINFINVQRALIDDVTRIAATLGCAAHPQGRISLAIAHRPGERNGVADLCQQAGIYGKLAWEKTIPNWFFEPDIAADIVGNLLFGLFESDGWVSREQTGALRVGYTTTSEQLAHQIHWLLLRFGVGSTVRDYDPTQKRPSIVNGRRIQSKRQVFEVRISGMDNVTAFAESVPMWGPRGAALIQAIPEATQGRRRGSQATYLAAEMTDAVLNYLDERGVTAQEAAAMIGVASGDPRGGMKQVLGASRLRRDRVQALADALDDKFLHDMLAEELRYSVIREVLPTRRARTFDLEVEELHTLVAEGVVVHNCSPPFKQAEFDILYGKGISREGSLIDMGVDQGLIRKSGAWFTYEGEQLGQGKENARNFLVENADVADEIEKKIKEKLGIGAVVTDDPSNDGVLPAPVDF
Mtb growth – M. tuberculosis H37Rv growth inhibitors, H37Rv strain (AID 1626). M. tuberculosis H37Rv growth inhibition; higher % means a stronger effect. inhibition, % at 10 µM; hits with a dose series show IC50 in µM. 220,000 compounds, 0.95% hits;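 active = confirmed in a dose series; inconclusive = inhibition above 80% but not taken into the dose series; inactive = below 80% or under 30% at every dose of the series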;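 note: bacteria incubated seven days before Alamar blue readout; 0% = bacteria only wells and 100% = bacteria with antibiotic wells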
Arbovirus inh – blocks arbovirus infection; arbovirus infection cell-based antiviral screen; inhibition, % at 10 µM; 200,000 compounds, 0.37% hits; AID 1251;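 active = inhibition from about 30%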;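 note: bluetongue infection of BSR cells; cell survival read as ATP light after 72 h; 0% = infected wells without compound and 100% = uninfected wells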
Arbovirus inh repeat – further read-out of Arbovirus inh, marked with its call; inhibition, %; measured here: 10K subset replicate screen; many hits read low in the repeat;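 first of two repeat runs on a subset; 0% = infected and 100% = uninfected wells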
* marks the source's active call; other numbers are inactive results. These rows are one share of the data; count on the stated rates, not on these rows.

COc1ccccc1C(=O)NC(=O)COC(=O)CCNS(=O)(=O)c1ccccc1 was read as Mtb betalactam -2.5 and RecA splice inh -1.2.
For Cc1cc(C)cc(NC(=O)CSc2nc(=O)n(CCN3CCOCC3)c3c2CCCC3)c1 the results were Mtb betalactam -0.2 and RecA splice inh 2.9.
`Cc1cccn2c(=O)c3cc(C(=O)NC4CCS(=O)(=O)C4)sc3nc12` (configuration not stated) gave YopH inh -31.9, Mtb betalactam -9.2, RecA splice inh -25.2, Arbovirus inh 10.3 and Arbovirus inh repeat -0.8.
`CCOc1ccc(-c2noc(CCCC(=O)NCC3CCCO3)n2)cc1OC` (configuration not stated) gave Mtb betalactam -13.9 and RecA splice inh -0.7.
For CN(C)S(=O)(=O)c1ccc(Cl)c(NC(=O)CN2CCc3ccccc3C2)c1 the results were Mtb betalactam -1.3, RecA splice inh 3.1, Mtb growth 2.1% and Arbovirus inh 24.6.
For S=c1[nH]nc(C2CCCCC2)n1/N=C/c1cccc(Cl)c1Cl the results were Mtb betalactam 12.9 and RecA splice inh 11.6.
Screening Cc1ccc(S(=O)(=O)N2CCCC(C(=O)NCC(C)C)C2)cc1 (configuration not stated) returned Mtb betalactam -0.9, RecA splice inh -0.3, Mtb growth -3.5% and Arbovirus inh -1.2.
Cc1ccc(C(=O)N/C(=C\c2ccc(-c3cccc([N+](=O)[O-])c3)o2)C(=O)NCCCN(C)C)cc1 was read as Mtb betalactam 1.4 and RecA splice inh 0.6.
Screening Cc1cc(C(=O)OCC(=O)Nc2cc(C(F)(F)F)ccc2N2CCOCC2)c(C)o1 returned YopH inh -12.1, Mtb betalactam 0.1, RecA splice inh 1.2, Mtb growth -7.3% and Arbovirus inh 10.8.
Cc1cc(C)c(S(=O)(=O)N(C)CC(=O)N2CCCCC2)c(C)c1 was read as YopH inh 0.1, Mtb betalactam -7.9, RecA splice inh 0.3, Mtb growth -2.4% and Arbovirus inh -2.7.
Screening CC(=O)c1ccc(NC(=O)CSc2nnc(NC(=O)C3CC3)s2)cc1 returned Mtb betalactam -15.7 and RecA splice inh 0.3.
For COc1cc(NS(=O)(=O)c2ccc(NC(=O)COc3ccccc3Cl)cc2)nc(OC)n1 the results were YopH inh -31.3, Mtb betalactam -1.5, RecA splice inh 6.2, Mtb growth -13.3% and Arbovirus inh 0.6.
Screening COC(=O)c1ccc(N=NNc2ccc(C(=O)OC)cc2)cc1 returned YopH inh -2.1, Mtb betalactam -8.0, RecA splice inh -3.0, Mtb growth 2.5% and Arbovirus inh -5.4.
For CNCCCOc1ccc2c(c1)CCC2 the results were Mtb betalactam -6.3, RecA splice inh -1.7, Mtb growth -9.8% and Arbovirus inh -8.0.
C=CCn1c(CCc2cc(C(C)(C)C)c(O)c(C(C)(C)C)c2)n[nH]c1=S was read as Mtb betalactam -1.1, RecA splice inh 4.7, Mtb growth 9.5% and Arbovirus inh -19.5.
Screening Nc1nnc(N2CCc3ccccc32)s1 returned YopH inh -40.1, Mtb betalactam -4.6, RecA splice inh -0.1, Mtb growth -2.9%, Arbovirus inh -2.2 and Arbovirus inh repeat -4.9.
Screening CC12COC3(C(N)=O)CC1CCC32C (configuration not stated) returned YopH inh -11.9, Mtb betalactam -1.1, RecA splice inh -1.8, Mtb growth 8.5% and Arbovirus inh 9.4.
For Cc1cc(NC(=O)c2cncc(Br)c2)n(-c2ccccn2)n1 the results were YopH inh -4.6, RecA splice inh 2.5 and Arbovirus inh 1.0.
For Cc1cc(NC(=O)COc2c(C)cccc2C)no1 the results were Mtb betalactam -2.1, RecA splice inh 5.9, Mtb growth 6.7% and Arbovirus inh -1.7.
`COc1cc(/C=C2/SC(N)=NC2=O)ccc1Oc1ccc([N+](=O)[O-])cc1[N+](=O)[O-]` gave YopH inh -27.0, Mtb betalactam 10.0, RecA splice inh 1.3, Mtb growth 4.0% and Arbovirus inh -2.4.
Screening Nc1cccnc1Oc1ccc(F)cc1 returned Mtb betalactam -4.6, RecA splice inh 1.9 and Mtb growth -4.8%.
Screening O=c1c2ccccc2ncn1-c1ccc([N+](=O)[O-])cc1[N+](=O)[O-] returned Mtb betalactam 4.0 and RecA splice inh -1.8.
For COCCn1c(SCC(=O)N2CCc3ccccc3C2)nc2cc(Cl)ccc2c1=O the results were YopH inh -18.0, Mtb betalactam 96.5, RecA splice inh -1.1, Mtb growth inconclusive and Arbovirus inh 13.9.
For CC(C)(C)OC(=O)N1CCC(c2cc(=O)n3[nH]c(-c4ccc(Cl)cc4)cc3n2)CC1 the results were YopH inh -28.2, Mtb betalactam 0.9, RecA splice inh 0.8, Mtb growth 4.2% and Arbovirus inh -13.5.
CCOc1ccc(C(=O)Nc2nnc(S(=O)(=O)Nc3ccccc3C)s2)cc1 was read as Mtb betalactam 6.5 and RecA splice inh 1.3.
Cc1cc(C)cc(-n2c(C)cc(C(=O)CSc3nnnn3C)c2C)c1 was read as YopH inh -1.0, Mtb betalactam 25.1, RecA splice inh 2.1, Mtb growth 0.8% and Arbovirus inh -2.0.
Screening Cc1ccc2nc(/C(C#N)=N/O)[nH]c2c1 returned YopH inh -0.5, Mtb betalactam 90.2, RecA splice inh -2.6, Mtb growth 4.7% and Arbovirus inh 3.0.
`CN=C(NC#N)SCC(=O)c1ccc(Cl)cc1Cl` gave YopH inh -38.6, Mtb betalactam -9.1, RecA splice inh -1.0, Mtb growth -5.6% and Arbovirus inh 5.1.
C#CCNC(=O)C1=C[C@@H](c2ccc(Br)cc2)C[C@@H](OCc2ccc(CO)cc2)O1 was read as Mtb betalactam 17.3, RecA splice inh 10.2, Mtb growth 8.3% and Arbovirus inh -8.0.
`Oc1c(C(c2ccccc2)N2CCN(Cc3ccccc3)CC2)sc2ncnn12` (configuration not stated) gave YopH inh 3.8, Mtb betalactam -1.0, RecA splice inh 1.8, Mtb growth -0.3%, Arbovirus inh 12.6 and Arbovirus inh repeat 4.3.
COc1cc(/C=C(\C#N)c2nc3ccccc3s2)ccc1OCC(=O)Nc1ccccc1 was read as YopH inh -35.0, Mtb betalactam -1.6, Mtb growth -2.5% and Arbovirus inh -24.1.
Screening COc1ccc(-c2c(=O)n(OCc3ccccc3[N+](=O)[O-])c3ccccc3[n+]2[O-])c(OC)c1 returned Mtb betalactam 2.5, RecA splice inh 1.3, Mtb growth 2.7% and Arbovirus inh 3.8.
For CCOc1cc(C(=O)Nc2ncn[nH]2)cc(OCC)c1OCC the results were Mtb betalactam -1.4, RecA splice inh 0.6, Mtb growth -6.3% and Arbovirus inh 3.7.
Screening CC1CCN(C(=O)C(=O)Nc2sc3c(c2C(=O)O)CC(C)(C)OC3)CC1 returned Mtb betalactam -2.4 and RecA splice inh 0.7.
CCOc1ccccc1NC(=O)CN(c1ccc(OC)cc1)S(=O)(=O)c1c(C)[nH]c(=O)[nH]c1=O was read as Mtb betalactam 2.5 and RecA splice inh 1.4.
Screening Cc1ccc(Nc2nc(C3CC3)cs2)cc1 returned YopH inh -28.4, Arbovirus inh -1.6 and Arbovirus inh repeat 2.1.
Screening COc1cccc(OCc2cc(C(=O)NC3CCOCC3)no2)c1 returned Mtb betalactam 7.9 and RecA splice inh 0.3.
Screening O=C(C1CC1)N1CCN=C1SCc1cccc(F)c1 returned YopH inh -30.3, Mtb betalactam -2.8, Mtb growth -6.9% and Arbovirus inh -11.5.
O=C(NNC(=S)NC(=O)c1cccc([N+](=O)[O-])c1)c1ccc(O)cc1 was read as Mtb betalactam 18.7 and RecA splice inh 0.0.
Cc1ccc(Nc2c([N+](=O)[O-])ccc3c2=NC2(CCCCC2)N=3)cc1 was read as YopH inh -16.1, Mtb betalactam 93.2, RecA splice inh 2.4 and Arbovirus inh -4.5.
Cc1ccccc1CCN(CC(=O)NCc1ccc(F)cc1)C(=O)c1csnn1 was read as Mtb betalactam -5.7 and RecA splice inh -2.4.
`C=C(C)c1cccc(C(C)(C)NC(=O)NCc2ccc(OC)cc2)c1` gave YopH inh -21.6, Mtb betalactam 4.5, RecA splice inh -2.3, Mtb growth 3.4% and Arbovirus inh -2.0.
`O=C1N=C(N2CCOCC2)S/C1=C\c1ccccc1OS(=O)(=O)c1ccccc1` gave Mtb betalactam -6.5, RecA splice inh 2.7 and Mtb growth -13.5%.
Screening COc1ccc(OC)c(Nc2nc(-c3c(C)nc4ncccn34)cs2)c1 returned Mtb betalactam 5.8 and RecA splice inh 1.4.
`Cn1c(=O)[nH]c2cc(Cl)cnc21` gave YopH inh -49.5, Mtb betalactam -3.5, RecA splice inh 1.1, Mtb growth -8.2% and Arbovirus inh -3.8.
`CSc1ccc(C(=O)C2CCCN(CCCn3cccn3)C2)cc1` (configuration not stated) gave Mtb betalactam 3.7, RecA splice inh -2.6, Mtb growth -5.1% and Arbovirus inh -1.3.
`O=c1cc(N2CCCCC2)[nH]c(=O)n1C1CCCCC1` gave Mtb betalactam -3.2, RecA splice inh -7.6, Mtb growth -8.4% and Arbovirus inh -0.8.
For COc1ccc2c(c1)c(C(=O)N/N=C/c1ccc(O)c(O)c1)c(C)n2C the results were YopH inh -25.5, Mtb betalactam 2.4, RecA splice inh -5.7, Mtb growth 1.0% and Arbovirus inh -6.5.
`CC1C(=O)N2CCCc3cc(S(=O)(=O)N4CCN(c5ccccc5F)CC4)cc1c32` (configuration not stated) gave Mtb betalactam -0.2 and RecA splice inh -2.1.
`O=C(O)CC1S/C(=N/N=C/c2ccc(-c3ccc(Cl)c([N+](=O)[O-])c3)o2)NC1=O` (configuration not stated) gave Mtb betalactam 1.2, RecA splice inh 5.3, Mtb growth -0.2% and Arbovirus inh 8.1.
Screening COC(=O)Cc1ccc(NC(=S)NCc2ccco2)cc1 returned Mtb betalactam -6.6, RecA splice inh -0.8, Mtb growth -1.1% and Arbovirus inh 4.7.
Screening CC(C)N(C(=S)NCc1ccccc1)c1ccccc1 returned Mtb betalactam 64.7, RecA splice inh -0.2, Mtb growth 3.2% and Arbovirus inh -2.8.
`COC1c2ccccc2C(=O)N1CCc1ccc(Cl)cc1` (configuration not stated) gave Mtb betalactam 6.5 and RecA splice inh 0.7.
For N#CC1=C(SCC(=O)NC2CCCCC2)NC(=O)CC1c1ccco1 (configuration not stated) the results were YopH inh -26.9, Mtb betalactam -4.8, RecA splice inh -0.3, Mtb growth -5.9% and Arbovirus inh -7.0.
For COc1cccc(C(=O)C2CCCN(C(=O)c3ccc(C#CC(C)(C)O)cc3)C2)c1 (configuration not stated) the results were Mtb betalactam 9.8, RecA splice inh 1.9, Mtb growth -1.3% and Arbovirus inh -1.3.
Screening Cc1ccc(-n2ncc3c(N4CCN(c5ccc(F)cc5)CC4)ncnc32)c(C)c1 returned YopH inh 34.9, Mtb betalactam 5.7, RecA splice inh -1.5, Mtb growth -1.6% and Arbovirus inh -1.6.
For O=C(Cn1cnc2c(nnn2Cc2ccc(F)cc2)c1=O)NCc1ccco1 the results were YopH inh 2.9, Mtb betalactam -4.4, RecA splice inh -0.7, Mtb growth -11.6% and Arbovirus inh -12.3.
`COc1ccc(N(C(=O)c2cccnc2)S(=O)(=O)c2ccccc2)cc1` gave Mtb betalactam 0.5, RecA splice inh 3.7, Mtb growth 1.9% and Arbovirus inh -1.4.
For CC(=O)c1cc(C(C)=O)c(C)nc1C the results were Mtb betalactam 5.9, RecA splice inh 0.8, Mtb growth -6.8% and Arbovirus inh 13.8.
CCN(CC)C(=O)Oc1ccc(NC(C)=O)cc1 was read as YopH inh -14.2, Mtb betalactam -8.3, RecA splice inh -4.6, Mtb growth 0.5%, Arbovirus inh 7.3 and Arbovirus inh repeat 0.0.
Cc1c(NC(=O)c2cccs2)cccc1C(=O)O was read as YopH inh -9.0, Mtb betalactam 3.0, Mtb growth -6.9% and Arbovirus inh 10.4.
CC1(CCc2ccccc2)NC(=O)N(CC(=O)O)C1=O (configuration not stated) was read as Mtb betalactam -3.3, RecA splice inh -3.5 and Mtb growth 0.7%.
Screening COc1ccc(Br)cc1-c1nc(CCl)cs1 returned Mtb betalactam 84.1, RecA splice inh 3.8, Mtb growth 9.6% and Arbovirus inh -0.7.
`CC(=O)c1ccc(NC(=S)Nc2cccc3cnccc23)cc1` gave Mtb betalactam 0.5, RecA splice inh -0.3 and Mtb growth -0.7%.
For COc1cccc2c(=O)c(C(=O)O)c[nH]c12 the results were YopH inh -2.6, Mtb betalactam 2.7, RecA splice inh -1.2, Mtb growth 2.6% and Arbovirus inh 1.6.
Screening O=C(O)CCCN1C(=O)/C(=C\c2ccco2)SC1=S returned RecA splice inh 6.5, Mtb growth -4.5% and Arbovirus inh 11.4.
